gsp antagonist = antagonizes gsp, the McCune-Albright syndrome mutation. gsp-mutant cells, cAMP HTRF, 30 min; control for the full effect not named in the record. 340,000 compounds, 0.4% hits. Potency, µM (series often up to 76.9 µM), for the others: at the top dose activity change, negative = inhibition, usual class: inhibitors. AID 624288; active = falling curve of any shape with a large fitted effect; inconclusive = falling curve, mostly with a smaller effect; inactive = flat or rising curve; cell line not stated here;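 further: intracellular cAMP measured with PDE inhibitor Ro 20-1724 present during compound exposure; potency means the concentration at half of the fitted maximal effect; on the % scale 0 is the no-effect control and ±100 the full control effect; nearly all actives have a fitted effect of over 65% in size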
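HTRF cAMP measurement after 30 min RT detection following 30 min, 37C compound treatment alongside […] (added as 300 uM solution) in G418-selected cells seeded at 2000/well and grown 16–24 h.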
CtBP-E1A inh = CtBP/E1A binding inhibition. AlphaScreen GST-E1A/His-CtBP binding, 1536-well; hits give low values; control for the full effect not named in the record. activity change, % (no concentration beside the values). 340,000 compounds, 0.49% hits; in the data active means activity change below about -65%; inconclusive means about -30% to -65%; inactive means above about -30%; further: on the % scale 0 is the no-effect control and ±100 the full control effect
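GST-E1A and His-tagged CtBP (125 nM each as 5X stock) were preincubated with pin-transferred compound for 2 h at 37 °C in the dark, then glutathione donor and nickel acceptor beads were added for 1 h before AlphaScreen reading.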
D2 PAM = human D2 receptor positive allosteric modulation. AID 624464. DiscoveRx D2 beta-arrestin cells, luminescence, 90 min; 100% = 57 uM dopamine signal. potentiation, % (concentration not given with the values). 360,000 compounds, 0.23% hits. P14416; active = potentiation of 50% or more; inconclusive = 30% to 50%; inactive = 30% or less;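 further: tested on top of an EC20 dose of dopamine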
Target sequence (P14416 whole entry, looked up): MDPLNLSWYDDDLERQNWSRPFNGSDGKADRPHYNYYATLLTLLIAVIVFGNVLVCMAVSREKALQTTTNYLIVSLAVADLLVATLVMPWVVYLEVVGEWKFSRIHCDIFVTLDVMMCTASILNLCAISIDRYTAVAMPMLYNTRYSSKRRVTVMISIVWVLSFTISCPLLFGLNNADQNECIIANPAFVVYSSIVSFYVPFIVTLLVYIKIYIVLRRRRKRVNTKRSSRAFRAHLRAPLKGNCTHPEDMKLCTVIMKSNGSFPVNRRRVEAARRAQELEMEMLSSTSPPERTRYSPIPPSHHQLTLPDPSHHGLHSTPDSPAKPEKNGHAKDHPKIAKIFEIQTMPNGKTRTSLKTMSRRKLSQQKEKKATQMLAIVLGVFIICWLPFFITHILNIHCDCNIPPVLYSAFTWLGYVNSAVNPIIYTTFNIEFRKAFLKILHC
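D2 cells co-treated with compound plus 50 nM dopamine (EC20) for 90 min at 37 deg C to detect potentiation. Beta-arrestin recruitment was read as enzyme-fragment luminescence after 1 h at ambient temperature. Full response was set by 57 uM dopamine.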
D2 agonist = agonists of human D2 dopamine receptor (beta-arrestin); AID 624465; activation, % (test concentration not listed); DiscoveRx PathHunter D2 beta-arrestin, luminescence, 90 min; 100% = 57 uM dopamine signal; 360,000 compounds, 0.084% hits; P14416; in the data active = activation above about 40%; inconclusive = about 15% to 40%; inactive = below about 15%; further: compound concentration not given in the record; the text of the record calls up to 30% inactive
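Agonist mode: compounds alone added to overnight-plated D2 PathHunter cells for 90 min at 37 C, with 57 uM final dopamine (EC100) defining full response. Beta-arrestin recruitment detected by chemiluminescent reagent, read after 1 h at ambient temperature.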
gsp agonist = gsp mutant agonism; gsp mutant cells, cAMP HTRF, 30 min; control for the full effect not named in the record; Potency, µM (highest dose often 76.9 µM), without a hit: at the highest dose activation (cAMP increase), usual class: activators; 340,000 compounds, 0.13% hits; active = well fitted activation curve with a large enough effect; inconclusive = small, poorly fitted or top-dose-only effect, or another doubt; inactive = no such curve, though single readings can be large or run the other way; cell line not stated here;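 further: phosphodiesterase inhibitor Ro 20-1724 added with compounds to block cAMP breakdown; potency means the concentration at half of the fitted maximal effect; nearly all actives have a fitted effect of over 60% in size; about a fifth of the inactives were tested at one dose only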
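Cells stably selected in G418 were plated at 2000/well, grown 16-24 hr, then given compounds in DMSO with the PDE inhibitor […] (300 uM solution added) for 30 min at 37C; cAMP was read by HTRF.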
Six1-Eya2 inh = inhibitors of human Six1/Eya2 interaction; AID 651725; activity change, % (concentration not given with the values); 360,000 compounds, 0.56% hits; Q15475+O00167; AlphaScreen GST-Six1/His-Eya2 binding, biochemical; hits give low values; control for the full effect not named in the record; in the data active = activity change below about -65%; inconclusive = about -30% to -65%; inactive = above about -30%; further: on the % scale 0 is the no-effect control and ±100 the full control effect
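Homogeneous AlphaScreen proximity assay pairing GST-Six1 with His-tagged Eya2 (added as 5X mix: 250 nM and 500 nM) in 50 mM Tris pH 8.0, 300 mM NaCl, 1 mM TCEP. Glutathione donor and nickel acceptor beads; 1 h, 37 °C, dark.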
Active calls of the source: *; ? = inconclusive; . = not tested or not shown; [ ] = dose if it differs, or a comment.

SMILES	gsp antagonist	CtBP-E1A inh	D2 PAM	D2 agonist	gsp agonist	Six1-Eya2 inh
CC(=O)c1ccc(N2CCN(S(=O)(=O)c3cccc4nonc34)CC2)cc1	-11.9%	.	-0.6	4.6	-22.0%	5.2
Cc1ccc(S(=O)(=O)CC(O)COc2ccccc2C#N)cc1 (configuration not stated)	-4.3%	.	-14.6	3.2	0.9%	12.1
N#Cc1nc(Cc2ccccc2)oc1NCc1ccccc1Cl	5.0%	-9.6	-1.6	-3.6	9.9%	-1.5
COC(=O)c1ccccc1NC(=O)COC(=O)Cc1ccc(S(=O)(=O)N2CCOCC2)s1	-8.0%	-3.3	1.0	1.3	-0.3%	1.5
CCOC(=O)c1cc(C(=O)OCC)c(=O)[nH]c1N1CCCC1	-6.0%	.	-5.5	2.6	-18.8%	1.2
COCOCCn1cc(CN2CCS(=O)(=O)N(Cc3ccc(-c4ccc(Cl)c(Cl)c4)cc3)C(C(C)C)C2=O)nn1 (configuration not stated)	.	-2.4	-8.0	1.2	-20.2%	-3.0
COc1ccc(NS(=O)(=O)c2cccc(NC(=O)COc3ccc(OC)cc3)c2)cc1	-22.3%	6.7	-5.5	-0.9	-8.6%	-10.2
COc1ccc(NC(=O)CN(C)S(=O)(=O)c2ccc3c(c2)CCC(=O)N3)c(OC)c1	5.6%	23.1	-0.7	2.8	-17.9%	14.2
Cc1c(C(=O)NCc2ccc3c(c2)OCO3)sc(=O)n1Cc1ccc(-c2ccccc2)cc1	.	-13.5	-2.5	4.0	.	-19.9
O=C(c1cc(-c2ccc(Cl)cc2)n[nH]1)N1CCc2ccccc2C1	-10.0%	0.0	-9.2	-1.9	?	5.2
O=C1CC(N2CCN(S(=O)(=O)c3ccccc3F)CC2)C(=O)N1c1ccccc1Cl (configuration not stated)	6.2%	1.9	-23.6	-2.9	12.2%[15.4 µM]	4.7
CC1(C(=O)NCc2cccc(Cl)c2)Cc2c(-c3cccc(C(N)=O)c3)ccnc2O1 (configuration not stated)	.	2.5	1.8	6.1	.	-3.8
CC(Nc1cc(N2CCN(C(=O)C(C)(C)C)CC2)ccc1[N+](=O)[O-])c1ccccc1 (configuration not stated)	-26.5%	-24.0	6.5	-4.0	-30.4%[inhibitor]	?
Cc1cc(SCC(=O)Nc2cccc(S(=O)(=O)NC3=NCCCCC3)c2)nc2ccccc12	-18.2%	-8.4	-14.6	-1.5	-8.3%	-16.9
NC(=O)CSC1=Nc2ccccc2C2=NC(CC(=O)NCc3cccs3)C(=O)N12 (configuration not stated)	18.4%	-18.6	-24.9	-2.0	41.1%	-3.9

Complete entries, looked up by structure.
N#Cc1nc(Cc2ccccc2)oc1NCc1ccccc1Cl is listed as gsp antagonist: 5.0%; CtBP-E1A inh: -9.6; D2 PAM: -1.6; D2 agonist: -3.6; gsp agonist: 9.9%; Six1-Eya2 inh: -1.5
Cc1c(C(=O)NCc2ccc3c(c2)OCO3)sc(=O)n1Cc1ccc(-c2ccccc2)cc1 is listed as gsp antagonist: .; CtBP-E1A inh: -13.5; D2 PAM: -2.5; D2 agonist: 4.0; gsp agonist: .; Six1-Eya2 inh: -19.9
CC(Nc1cc(N2CCN(C(=O)C(C)(C)C)CC2)ccc1[N+](=O)[O-])c1ccccc1 (configuration not stated) is listed as gsp antagonist: -26.5%; CtBP-E1A inh: -24.0; D2 PAM: 6.5; D2 agonist: -4.0; gsp agonist: -30.4%[inhibitor]; Six1-Eya2 inh: ?

The listing continues:
SMILES	gsp antagonist	CtBP-E1A inh	D2 PAM	D2 agonist	gsp agonist	Six1-Eya2 inh
O=C(CCNC(=O)c1ccccc1)NCC1CCCCC1	3.6%	-2.5	-17.4	-3.2	-45.4%[inhibitor]	2.9
O=C(c1ccc2c(=O)n3c(nc2c1)CCCCC3)N1CCN(c2cccc(Cl)c2)CC1	-17.0%	-18.9	3.5	0.7	-30.4%[inhibitor]	?
COc1ccc(C(C(=O)NCCC(C)C)N(CCO)C(=O)c2snc(C(N)=O)c2N)cc1 (configuration not stated)	11.1%	9.0	-4.9	1.5	-6.3%	3.2
COc1ccc(C(=O)NNC2=NC(C)(C)Cc3ccccc32)cc1	8.9%	-7.8	-17.0	-1.0	-30.6%[inhibitor]	3.2
Cc1ccccc1NC(=O)c1cccnc1	7.7%	.	-0.1	0.0	-14.5%	-3.8
COc1cccc(CNC(=O)Cc2ccc(NC3=NC4CS(=O)(=O)CC4S3)cc2)c1 (configuration not stated)	4.3%	-2.0	-5.4	-6.0	?	1.6
Cc1ccc(C2=[N+]([O-])C(C)N(O)C2(C)C)o1 (configuration not stated)	4.5%	-0.9	-7.8	1.7	-53.9%[inhibitor]	-3.0
O=C(COC(=O)C1COc2ccccc2O1)c1ccccc1 (configuration not stated)	.	-18.7	-12.3	-4.8	10.7%	11.8
CCN1CCN(C(=O)c2ccccc2N(C)S(=O)(=O)c2ccc(C)cc2)CC1	11.5%	6.9	-25.6	-3.8	29.6%	-0.2
CCOc1ccc(NC(=O)CC2SC(N)=NC2=O)c([N+](=O)[O-])c1 (configuration not stated)	10.4%	-0.6	?	1.7	-3.4%[15.4 µM]	3.4
C=CCNC(=S)Nc1ccc2nc(C)oc2c1	10.3%	-0.5	3.4	6.3	?	-4.4
Cc1noc(C)c1C(=O)NCCc1ccc(Cl)cc1	5.9%	6.7	2.8	-0.7	13.6%	-0.3
Cc1cc(C)c(-c2csc(NC(=O)C3=COCCO3)n2)c(C)c1	-8.4%	-1.5	2.1	-2.2	-2.2%[15.4 µM]	-7.2
Cc1ccc2nc(SCC(=O)c3ccc(Cl)s3)[nH]c2c1	-14.5%	-24.0	-17.8	-2.1	-8.7%	-10.7
Cc1ccc(Cl)cc1NC(=O)N[C@@H](CC(C)C)C(=O)O	5.4%	2.3	-7.5	-1.4	22.9%[15.4 µM]	9.9
Cc1nccc(-c2cccc(NC(=O)Nc3ccc(Cl)cc3)c2)n1	-17.7%	-3.7	-7.5	1.9	3.0%[15.4 µM]	-17.8
CCn1c(=O)n(CC(=O)NCC2CCCO2)c(=O)c2c3c(sc21)CCCC3 (configuration not stated)	-5.1%	-2.0	-5.1	0.0	?	0.3
Cc1ccccc1C(=O)N1CCC(C(=O)OCc2ccccc2Cl)CC1	-5.5%	5.8	0.7	0.6	3.5%	1.0
COC(=O)C1=C(CCc2ccccc2)NC(=O)NC1c1ccc(C#N)cc1 (configuration not stated)	3.4%	1.8	2.1	0.0	.	3.7
Cc1nnc(SCCC(=O)Nc2ccc(Cl)cc2)o1	5.8%	-13.7	-14.0	-1.8	3.5%[15.4 µM]	-2.8
Cc1ccc(CNC(=O)c2ccc(N3CCC4(CC3)CC(c3cccc(Br)c3)=NO4)c([N+](=O)[O-])c2)cc1	8.5%	.	-8.5	-4.8	-32.7%	-6.6
O=c1c2cnn(-c3ccccc3)c2ncn1Cc1ccccc1	-13.7%	-5.5	-0.5	0.5	3.3%	8.5
Cc1ccc(O)c(NC(=O)c2ccccc2-c2ccccc2C(=O)O)c1	-9.4%	-4.7	-8.0	-4.7	-26.0%[15.4 µM]	-6.0
Cc1ccc(-c2noc(=O)n2CC(=O)c2ccc(Cl)cc2)cc1	-5.6%	.	2.9	0.4	-81.5%[inhibitor]	0.1
COC(=O)C[C@@H]1C[C@@H]2c3cc(NS(=O)(=O)c4ccccc4)ccc3O[C@@H]2[C@@H](CO)O1	.	2.1	1.6	-4.6	-76.4%[inhibitor]	5.0
O=C(COC(=O)CNC(=O)c1ccc(Cl)cc1Cl)Nc1ccc(N2CCOCC2)cc1	-13.1%	4.3	-0.3	3.9	-0.7%	-10.3
O=C1CCN(C2CCN(Cc3nc(Cc4ccccc4F)no3)CC2)CCN1	1.3%	1.3	-10.4	-6.5	32.8%	8.6
CCOc1ccccc1NC(=O)N1CCCC1C(=O)NCc1ccco1 (configuration not stated)	-3.1%	-24.0	-2.6	1.6	21.4%	-15.6
COc1ccccc1-c1nc(-c2ccc(Br)cc2)no1	-1.1%	11.3	-1.0	-0.7	-0.3%	11.9
Cc1ccc(/C=N/NC(=O)C2COc3ccccc3O2)s1 (configuration not stated)	28.7%	0.7	-0.1	-1.2	-0.7%[15.4 µM]	-12.3
Cc1ccc(-c2cc(C(=O)N3CCCC3)c3ccccc3n2)s1	-5.6%	-3.4	-20.8	-0.3	-41.6%[inhibitor]	-7.2
Cc1ccc(NC(=S)NC(=O)CC2CC(C)(C)OC2=O)cc1 (configuration not stated)	-16.0%	.	-4.7	1.2	36.9%	-0.3
COc1cc2nc(SCc3ccc(Cl)cc3Cl)n(Cc3cccs3)c(=N)c2cc1OC	-2.4%	0.5	17.0	0.0	7.7%	-6.1
CC1(NC(=O)Cc2c(F)cccc2Cl)CCS(=O)(=O)C1 (configuration not stated)	8.8%	1.0	-1.5	-0.4	-2.7%	5.8
CC(C)C(C(=O)NCc1ccco1)N(C(=O)CNS(=O)(=O)c1ccccc1)c1ccccc1 (configuration not stated)	7.9%	-16.7	-3.9	-2.3	-21.6%[15.4 µM]	-12.9
CC(C)(C)c1nc(SCC(=O)Nc2ccc3c(c2)OCCO3)c2ccccc2n1	10.0%	-0.1	-27.5	-0.5	-59.9%[inhibitor]	-1.9
CC(C)(C)CC(=O)Nc1nnc(SCC(=O)NCc2cccs2)s1	2.0%	.	-5.6	-1.5	14.0%	5.6
Cc1ccc(C(=O)/C=C/Nc2cccc(O)c2)cc1	-4.1%	8.9	6.5	1.2	-0.7%	-12.0
CN(Cc1cccs1)C(=O)CNC(=O)c1ccco1	14.7%	6.3	-2.3	-0.9	18.4%	1.5
O=C(c1cc(COc2ccc(F)cc2F)on1)N1CC2C[C@@H]3CC1C[C@H](C2)C3	-3.5%	8.7	-8.4	-0.2	-14.4%	10.4
CCCCn1c(N)c(N(CCOC)C(=O)c2ccc3c(c2)OCCO3)c(=O)[nH]c1=O	2.8%	1.7	2.2	2.5	-1.0%	2.0
COc1ccccc1N1CCN(C(=O)c2ccccc2Oc2ccccc2)CC1	-19.9%	-2.7	-19.0	-4.8	-47.9%[inhibitor]	-6.1
CCCc1cc(=O)[nH]c(SCC(=O)Nc2cc(S(=O)(=O)N3CCCCC3)ccc2Cl)n1	-11.8%	6.2	-2.0	-2.7	-11.1%	-2.1
Cn1c(=O)c2[nH]c(C3CC3)nc2n(C)c1=O	-0.7%	-11.9	-11.5	-3.5	?	-1.2
CCN1CCCC1CNCc1ccccc1OCc1ccc(F)cc1 (configuration not stated)	-3.9%	6.3	-14.7	-1.8	-5.8%	-5.5
COc1ccc(/C=C/C(=O)NCc2ccc3c(c2)OCO3)cc1OC	-30.3%	0.0	-8.5	-0.6	-17.8%	0.0
CC(=O)c1c(O)c2ccccc2n(C2CCCCC2)c1=O	4.8%	-2.4	-3.5	10.6	4.3%	-2.4

Arranged by the number under gsp agonist (rising): three of the compounds above.
Molecule | gsp agonist
COc1ccc(/C=C/C(=O)NCc2ccc3c(c2)OCO3)cc1OC | -17.8%
Cc1ccc(NC(=S)NC(=O)CC2CC(C)(C)OC2=O)cc1 (configuration not stated) | 36.9%
NC(=O)CSC1=Nc2ccccc2C2=NC(CC(=O)NCc3cccs3)C(=O)N12 (configuration not stated) | 41.1%

Compound activity from PubChem BioAssay.
